# Screens: PubChem BioAssay, ICCB-Longwood Screening Facility, Harvard Medical School
# PV pol inh: poliovirus RdRp elongation inhibitors, primary screen, biochemical, fluorescence polarization, total intensity | % elongation, % (compound at 16.7 µg/mL) | poliovirus polymerase elongation; active compounds read low | Genome polyprotein (Poliovirus type 1 (strain Mahoney)), P03300 | hit rate 0.66% among 150,000 | AID 588519, 2011; in the data active = % elongation below about 90%; note: some results filed as inactive read as strong as hits
# Target sequence (P03300 1749-2209 limits assumed): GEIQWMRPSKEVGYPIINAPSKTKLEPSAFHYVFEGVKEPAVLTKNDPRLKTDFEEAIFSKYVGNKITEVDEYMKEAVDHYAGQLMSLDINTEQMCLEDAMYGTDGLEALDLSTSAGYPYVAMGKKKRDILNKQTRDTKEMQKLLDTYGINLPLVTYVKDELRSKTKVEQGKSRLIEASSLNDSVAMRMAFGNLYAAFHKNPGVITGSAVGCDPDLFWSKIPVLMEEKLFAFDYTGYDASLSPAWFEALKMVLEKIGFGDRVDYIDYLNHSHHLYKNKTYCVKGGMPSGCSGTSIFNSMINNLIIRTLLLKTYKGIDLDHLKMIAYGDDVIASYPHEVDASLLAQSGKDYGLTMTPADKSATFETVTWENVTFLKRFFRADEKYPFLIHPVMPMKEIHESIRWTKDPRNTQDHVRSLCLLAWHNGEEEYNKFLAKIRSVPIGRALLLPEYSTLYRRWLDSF
# MbtI inh: MbtI salicylate synthase inhibitors, primary screen, biochemical, fluorescence intensity. P9WFX0. purified MbtI enzyme, fluorescence intensity read-out. hit rate 0.89% among 100,000. inhibition, %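 (about 17 µg/mL by stock and volumes)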;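 active = above 50% in both replicates, above 80% if mildly self-fluorescent; inactive = the rest, strongly fluorescent compounds included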;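 note: 0% = mean of negative and 100% = mean of positive controls; one replicate is shown; some compounds called inactive have numbers as strong as hits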
# Mtb MenB inh: M. tuberculosis MenB inhibitors, primary screen, biochemical, absorbance. 1,4-dihydroxy-2-naphthoyl-CoA synthase (Mycobacterium tuberculosis (strain ATCC 25618 / …. MenB enzyme assay, absorbance read-out; some hits fall short of the stated cut. inhibition, %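 (about 12 µg/mL by stock and volumes)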. hit rate 0.43% among 100,000;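 active = mean of two replicates above 30%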;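 note: 0% = no compound and 100% = wells with inactive enzyme; the first replicate is given; strong numbers were not always called active; inactives centre near -10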
# Target sequence (P9WNP5 whole entry, looked up): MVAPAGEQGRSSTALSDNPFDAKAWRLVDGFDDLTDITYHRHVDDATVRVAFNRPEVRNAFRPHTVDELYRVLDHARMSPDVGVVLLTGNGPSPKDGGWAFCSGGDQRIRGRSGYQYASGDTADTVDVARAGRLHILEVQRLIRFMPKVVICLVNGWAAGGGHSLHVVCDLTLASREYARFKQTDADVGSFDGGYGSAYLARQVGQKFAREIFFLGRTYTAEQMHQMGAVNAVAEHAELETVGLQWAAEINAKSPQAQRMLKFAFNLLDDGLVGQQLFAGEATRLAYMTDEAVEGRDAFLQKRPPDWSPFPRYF
# PV pol inh intensity: also measured in PV pol inh; calls as there; % elongation; measured here: total intensity read-out; formula for this scale not given here;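 total fluorescence in place of polarization; lower means less elongation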
# * = called active by the depositor; . = not tested or not shown; & = joins results of further samples. This is a random part of the collection; about 1.7% have a hit in one of these screens.
# Below each compound – PV pol inh, PV pol inh intensity, MbtI inh, Mtb MenB inh
Cc1cccc(C(=O)Nc2nc3ccc(C)cc3c(=O)[nH]2)c1
→ 101.0, 104.0, -7.0, 4.8
Cc1cc(C)c2sc(N3CCN(C(=O)C(C)(C)C)CC3)nc2c1
→ 101.0, 103.0, -8.6, -25.1
CCC(C)NC(=O)C1CCC(CNS(=O)(=O)c2ccc(C)cc2)CC1 (configuration not stated)
→ 98.0, 104.0, -9.6, 0.4
Oc1c(C=Nc2ccccc2)sc2ccccc12
→ 114.0, 119.0, 9.2, .
N#C/C=C/N1CCN(C(c2ccccc2)c2ccccc2)CC1
→ 108.0, 107.0, -3.7, -30.6
CCn1c(CSc2ncnc3sccc23)nc2cc(S(=O)(=O)N(C)C)ccc21
→ 100.0, 102.0, -5.0, -2.6
CN(CCC(=O)O)Cc1cccnc1
→ 101.0, 101.0, -8.2, -10.1
CC1(C)CC(=O)c2cc(O)ccc2O1
→ 99.0, 103.0, -50.1, -20.3
O=C(OCCC1(c2ccccc2)C(=O)c2ccccc2C1=O)c1cc2ccccc2oc1=O
→ 106.0, 108.0, ., -19.4
c1ccc(-c2noc(C3CCCO3)n2)nc1 (configuration not stated)
→ 99.0, 103.0, 4.5, -13.7
CCCCC(=O)Nc1ccc2c(c1)OCCO2
→ 101.0, 102.0, -11.2, -22.9
Cc1oc(C)c(C(N)=O)c1C(N)=O
→ 104.0, 102.0, -8.4, -5.6
O=S(=O)(/C=C/c1ccccc1)Nc1ccc(F)cc1
→ 100.0, 101.0, -2.5, .
N#CCn1nc2ccccc2n1
→ 102.0, 105.0, 1.8, 4.8
N=c1c(C(N)=O)cc2c(=O)n3ccccc3nc2n1Cc1ccccc1
→ 99.0, 99.0, 89.2, -54.6
O=C(CSc1nc(-c2ccccc2)cc(=O)[nH]1)N1CCc2ccccc21
→ 100.0, 102.0, -1.4, 9.4
O=C(O)C1CCCCC1C(=O)N1CCc2ccccc21 (configuration not stated)
→ 102.0, 103.0, -7.9, -28.2
O=S(=O)(c1ccc2c(c1)OCCO2)N1CCC(O)(c2ccc(Cl)cc2)CC1
→ 105.0, 102.0, -61.2, -24.3
Oc1[nH]c2ccc(Br)cc2c1N=NC(=S)NCC1CCCO1 (configuration not stated)
→ 90.0*, 89.0*, 31.0, -11.3
CNC(=O)CCCc1cn(Cc2ccccc2Cl)c2ccccc12
→ 102.0, 107.0, -0.9, -29.9
CCN(CC)C(=O)Cn1c(=O)oc2ccccc21
→ 101.0, 105.0, -3.5, 8.7
O=C(c1ccccc1O)N1CCOCC1
→ 112.0, 110.0, ., -6.9
Fc1ccc(-c2csc(Cc3nnc4n3CCCCC4)n2)cc1
→ 100.0, 102.0, -8.8, .
Clc1ccc(C2NCCS2)cc1 (configuration not stated)
→ 101.0, 104.0, -1.5, -9.0
Cc1cccc(CN2CCN(C(c3ccccc3)c3ccc(Cl)cc3)CC2)c1 (configuration not stated)
→ 101.0&99.0, 102.0&102.0, -10.2&-16.4, -0.1&1.7
O=C(CSc1cccc[n+]1[O-])NCC1CCCO1 (configuration not stated)
→ 102.0, 105.0, -12.1, .
Cn1nc(-c2ccc(C(=O)NCC3CCCO3)cc2)c2ccccc2c1=O (configuration not stated)
→ 103.0, 101.0, 10.0, -5.8
CC(=O)N(CCC(c1ccccc1)c1ccco1)Cc1ccc(F)cc1 (configuration not stated)
→ 100.0, 100.0, 33.4, -29.4
Cc1sc2ncnc(N3CCN(CCO)CC3)c2c1C
→ 93.0, 88.0, ., 4.9
Cc1ccc(CNC(=O)CSc2nc(N3CCCCC3)nc(N3CCCCC3)n2)cc1
→ 98.0, 103.0, -18.9, 5.3

# Rewritten as labelled records: part of the list above.
> CCn1c(CSc2ncnc3sccc23)nc2cc(S(=O)(=O)N(C)C)ccc21
  PV pol inh: 100.0
  PV pol inh intensity: 102.0
  MbtI inh: -5.0
  Mtb MenB inh: -2.6

> CN(CCC(=O)O)Cc1cccnc1
  PV pol inh: 101.0
  PV pol inh intensity: 101.0
  MbtI inh: -8.2
  Mtb MenB inh: -10.1

> CC1(C)CC(=O)c2cc(O)ccc2O1
  PV pol inh: 99.0
  PV pol inh intensity: 103.0
  MbtI inh: -50.1
  Mtb MenB inh: -20.3

# Later entries
# Below each compound – PV pol inh, PV pol inh intensity, MbtI inh, Mtb MenB inh
COc1cccc(NC(=S)N(CCN(C)C)C(C)c2ccncc2)c1 (configuration not stated)
→ 103.0, 105.0, -4.8, -13.0
CCS(=O)(=O)N1Cc2ccccc2CC1C(=O)NCCc1ccccc1 (configuration not stated)
→ 106.0, 102.0, 6.3, -31.9
Cc1c(Cc2ccccc2)c(Cl)n2c(nc3ccccc32)c1C#N
→ 100.0, 103.0, -4.3, -9.8
O=C(OCc1cccc(COC(=O)c2ccc(Cl)cc2)n1)c1ccc(Cl)cc1
→ 101.0, 99.0, 0.2, -17.9
O=C1c2cccc(OCC(=O)N3CCCc4ccccc43)c2CCN1Cc1cccnc1
→ 101.0, 98.0, -4.8, -5.9
COc1ccc(-c2cn3c(C)c(C(=O)N4CCCc5ccccc54)sc3n2)cc1
→ 101.0, 107.0, -2.5, 4.0
CCNC(=S)N1CCCCC1CO (configuration not stated)
→ 99.0, 101.0, -8.8, -2.8
Cc1ccccc1OCCSc1nc(C(C)C)cc(=O)[nH]1
→ 104.0, 99.0, 37.5, -70.4
COc1ccc(N)cn1
→ 69.0, 194.0, 95.9, .
Cc1ccc2cc3c(N)[nH]nc3nc2c1
→ 104.0, 101.0, 12.1, -117.8
Cc1cccc(-n2ccnc2SCC(=O)N2CCN(C(=O)C3COc4ccccc4O3)CC2)c1 (configuration not stated)
→ 106.0, 104.0, -1.1, -18.8
CC(=O)Nc1ccc2c(c1)nc(C)n2C
→ 100.0, 101.0, ., -13.8
CCc1ccc(NC(=O)CN(c2ccccc2)S(=O)(=O)N(C)C)cc1
→ 101.0, 103.0, -10.7, -16.4
CCCOc1ccc(/C=N/NC(=O)CN2CCCCC2)cc1
→ 103.0, 99.0, 21.5, -46.4
Cc1cc(N)n(C(C)(C)C)n1
→ 103.0, 96.0, -2.7&-16.6, .
CC1CCCCC1NC(=O)CSc1nnc(-c2ccccc2Br)o1 (configuration not stated)
→ 93.0, 100.0, -3.3, 0.0
O=C(O)CCc1ccc(Br)cc1
→ 104.0, 105.0, -8.3, 4.9
CCOc1ccc2nc(Cl)c(CN(Cc3ccco3)C(=O)c3ccco3)cc2c1
→ 106.0, 100.0, -15.1, -51.1
CC1(C)C2CCC1(CS(=O)(=O)NC1CCCC1)C(=O)C2 (configuration not stated)
→ 102.0, 103.0, -1.9, .
Cc1cccc(OCC(=O)NCC(C)C)c1C
→ 99.0, 105.0, -9.2, 0.1
O=C(NCc1ccccc1)c1cccc(OCC(=O)N2CCOCC2)c1
→ 105.0, 113.0, 0.2, -27.9
Nc1sc2c(c1C(=O)N1CCOCC1)CCCC2
→ 73.0, 233.0, 98.4, -26.0
CCN(CC)C(=O)COc1ccc2c(c1)C(=O)CC(C)(C)O2
→ 101.0, 105.0, 92.8, -7.9
CCOC(=O)c1c(-c2ccccc2)cn2c1SCC2=O
→ 109.0, 112.0, -11.2, -7.6
CN(Cc1ccccc1)c1nnnn1-c1ccccc1
→ 102.0, 96.0, -8.3, -25.0
CCc1c(C#N)c(N)nc2sc(C(=O)OCc3ccccc3)c(N)c12
→ 101.0, 103.0, -4.5, 15.5
CCC(C)NC(=O)COc1cc(=O)n(C)c2ccccc12 (configuration not stated)
→ 101.0, 103.0, -5.3, -10.7
COc1ccccc1Nc1nc2c(S(=O)(=O)c3c(C)cc(C)cc3C)nnn2c2ccccc12
→ 105.0, 99.0, 3.3, 12.6
Cc1ccc(C(=O)c2cnc3ccccc3c2N2CCCC2)cc1
→ 104.0, 102.0, 5.7, -3.9
C=CCN1C(=O)NC(NC(=O)c2ccccc2)(C(F)(F)F)C1=O (configuration not stated)
→ 100.0, 102.0, -25.9, -6.1

# Following part
Molecule,PV pol inh,PV pol inh intensity,MbtI inh,Mtb MenB inh
CCOc1ccc(N=c2scc(-c3ccc(S(=O)(=O)N4CCCCC4)cc3)n2CCCO)cc1,102.0,102.0,4.5,13.6
C=CCN1C(=O)C2C(C(=O)NCc3ccccc3)C3C=CC2(O3)C1C(=O)NC1CCCC1 (configuration not stated),104.0,104.0,-3.0,11.6
Cc1cccc(NC(=O)CCNS(=O)(=O)c2ccc3[nH]c(=O)oc3c2)c1,100.0,100.0,-6.9,-13.4
COc1ccccc1N1CC(C(=O)Nc2nc(C)cs2)CC1=O (configuration not stated),107.0,113.0,-0.1,0.2
CCOc1cc(S(=O)(=O)NCCOC)c(OCC)cc1C,100.0,102.0,-9.6,1.9
CCOC(=O)C1=NN(c2ccc(C)cc2)CC1C(=O)OC (configuration not stated),103.0,103.0,23.9,-118.4
CCc1ccc(C=C2C(=O)N(C)C(=S)N(C)C2=O)cc1,98.0,98.0,98.7*,-73.5
COc1ccccc1-c1nnc(C2CCN(C(=O)c3ccccc3)CC2)o1,104.0,106.0,-10.9,-23.8
O=C(Cn1ncc2c([nH]c3ccccc32)c1=O)NCCc1ccsc1,105.0,104.0,10.9,-9.4
Cc1cc(C)c2c(=O)[nH]c(SCC(=O)NCCc3ccccc3)nc2n1,100.0,102.0,24.9,-2.2
CCC(C)NC(=O)C1CCN(Cc2cc(OC)ccc2OC)CC1 (configuration not stated),100.0,102.0,-15.4,30.0
Cc1cc(-c2nc(C(=O)N3CCCCC3)cs2)no1,107.0,113.0,-10.2,-13.3
CC1CC(C)CN(C(=O)c2ccco2)C1 (configuration not stated),102.0,109.0,.,-11.5
Cc1[nH]c2ccccc2c1C(=O)CSc1nc2ccccc2o1,103.0,102.0,-2.7,-15.9
Cc1ccc2c(c1)-c1c(cnn1CC(=O)NCCc1ccc(S(N)(=O)=O)cc1)CO2,102.0,100.0,1.9,10.5
N#Cc1cccc(NC(=O)C2SC(=NCc3ccco3)C(C(=O)N3CCCC3)=C2N)c1 (configuration not stated),99.0,103.0,-0.4,-40.2
CCCc1cc(C2C(C#N)=C(N)Nc3oc(OC)nc32)ccc1OC(C)C (configuration not stated),104.0,114.0,.,-9.0
CC(=O)NCc1c(I)c(NC(C)=O)c(I)c(C(=O)O)c1I,100.0,99.0,-14.6,-18.6
CC(Sc1nnc(C2CCCCC2)n1N)C(=O)NC(N)=O (configuration not stated),102.0,102.0,1.3,1.7
COc1ccc(/C=C/C#N)cc1OC,98.0,100.0,-5.8,-56.7
COc1cccc(-c2cc(C#N)on2)c1OC,102.0,98.0,-4.8,-48.8
Cc1ccccc1NC(=O)/C=N/O,104.0,109.0,-12.2,.
CCN(CC(=O)Nc1ccc(N2CCOCC2)cc1)C(=O)c1nc2nccc(C)n2n1,99.0,102.0,1.3,6.0
CCOC(=O)c1ccc(-c2c(C(=O)OCC)oc3cc(O)c(CC)cc3c2=O)o1,99.0,98.0,14.4,8.2

# One compound at a time, from the list above:
# Cc1ccc2c(c1)-c1c(cnn1CC(=O)NCCc1ccc(S(N)(=O)=O)cc1)CO2 is entered as PV pol inh = 102.0; PV pol inh intensity = 100.0; MbtI inh = 1.9; Mtb MenB inh = 10.5
# CC1CC(C)CN(C(=O)c2ccco2)C1 (configuration not stated) is entered as PV pol inh = 102.0; PV pol inh intensity = 109.0; MbtI inh = .; Mtb MenB inh = -11.5

# (next part)
Molecule,PV pol inh,PV pol inh intensity,MbtI inh,Mtb MenB inh
COC(=O)Nc1ccc(S(=O)(=O)NCC(OC)OC)cc1,104.0,107.0,-6.8,-20.9
O=S(=O)(c1ccc(Cl)cc1)N1c2ccccc2Sc2ccc(C(F)(F)F)cc21,101.0,104.0,-4.7,-17.7
CN1CCCN(C(=O)/C=C/c2ccc(Cl)cc2Cl)CC1,103.0,101.0,-2.0,.
COc1ccccc1CNc1cnn(C23CC4CC(CC(C4)C2C(=O)O)C3)c(=O)c1Cl (configuration not stated),100.0,100.0,7.9,-12.1
COc1ccc(CN=Cc2ccc(NC(C)=O)cc2)cc1,106.0,111.0,-5.0,-7.8
O=C(OCC(=O)N1CCCc2ccccc21)C1COc2ccccc2O1 (configuration not stated),105.0,111.0,-13.8,-6.6
CCOC(=O)c1ccc(NC(=O)C2C(=O)N(C)C3(C)CC2c2ccccc2O3)cc1 (configuration not stated),104.0,104.0,1.6,-20.8
CCOc1cc(C)c2c(=O)c(-c3ccccn3)c(C)oc2c1,102.0,96.0,-4.2,.
O=C1CSC(c2ccc3c(c2)OCO3)N1c1ccc(Cl)cc1 (configuration not stated),101.0,102.0,2.3,-29.6
COC(=O)c1ccc(N2CCCC2=O)cc1,99.0,100.0,-3.0,-3.6
O=C(COC(=O)CCN1C(=O)C2CC=CCC2C1=O)Nc1cc(Cl)cc(Cl)c1 (configuration not stated),100.0,104.0,3.0,-5.6
COc1ccc(Cl)cc1NC(=O)c1nc2nc(-c3ccccc3)cc(C(F)(F)F)n2n1,100.0,98.0,11.0,-11.7
CC(C)(C)c1cccc(OCCON2C(=O)CCC2=O)c1,101.0,104.0,-9.3,-2.1
Cc1noc(C)c1S(=O)(=O)N1CCC(C)CC1,102.0,108.0,-8.6,-16.7
